Bm FixLJ act = activators of Burkholderia fixLJ two-component system, primary screen, B. multivorans, GFP reporter. B. multivorans fixK-promoter GFP reporter, 18 h; active compounds read high. AID 1918990, 2023. hit rate 0.3% among 29,000. z-score (concentration not given with the values);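 active = replicate mean overnight rise in green fluorescent reporter signal, 3 or more SD over negative controls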;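 also: score is relative to vehicle wells of the plate; 300 nL library stock went into each well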
Active calls of the source: *.

cpd | molecule | Bm FixLJ act
1 | CCOc1ccc(NC(=O)C2CCN(S(=O)(=O)c3c(C)noc3/C=C/c3ccco3)CC2)cc1 | -0.97
2 | CCCNc1ccccc1C(=O)N(C)C1C[C@@H]2CNC(=O)C[C@H]2C1 (stereo partly specified) | 0.04
3 | O=C(Nc1cccc(C(F)(F)F)c1)c1cccc(C(=O)Nc2cccc(C(F)(F)F)c2)c1 | 0.3
4 | COc1ccc(S(=O)(=O)N2CCN(Cc3ccc4c(c3)OCO4)CC2)cc1OC | -0.55
5 | Cc1ccc([N+](=O)[O-])cc1NC(=O)CN(c1ccccc1)S(=O)(=O)N(C)C | -2
6 | Cc1ccc(C)c(N2CCN(C(=O)C3CCCN(S(=O)(=O)c4cccc5nsnc45)C3)CC2)c1 (stereo unspecified) | 0.1
7 | Cc1ccc2c(c1)c(=O)c1ccccc1n2CCCC(=O)Nc1ccc(F)cc1F | -0.76
8 | Cc1ccc2c(=O)cc(C(=O)Nc3sc4c(c3C(=O)NCc3ccco3)CCC4)oc2c1C | -0.57
9 | O=C(Nc1nc2ccc(F)cc2s1)c1nc(S(=O)(=O)Cc2ccccc2)ncc1Cl | 0.27
10 | Cc1ccccc1CN(CC1CCCO1)C(=O)c1nc(N)nc2c1CCCC2 (stereo unspecified) | -0.76
11 | CCn1c(=O)c2sccc2n2c(CCC(=O)NCc3ccc(Cl)cc3)nnc12 | -0.31
12 | CCN(C(=O)c1cn(CC)c(=O)c2cc(OC)c(OC)cc12)c1ccccc1F | 1.2
13 | C=CCc1cc(CNCCN2CCCC(C(N)=O)C2)ccc1OCC (stereo unspecified) | -1.1
14 | CCOc1ccccc1NC(=O)c1c(NC(=O)Cc2ccc(OC)cc2)sc2c1CCC2 | -1.8
15 | Cc1nc2c(c(=O)[nH]1)CN(C(=O)c1ccc(OCCCN)cc1)C2 | 0.14
16 | Cc1ccc(C(=O)Nc2ccc(-c3nc4ccccc4s3)cc2C)cc1C | -1.9
17 | COc1nc2c(cc1CNC(=O)c1ccc(O)cn1)C(=O)N(C1CCCC1)C2 | -0.73
18 | CCOC(=O)CC(NC(=O)CCc1c(C)nc2c(-c3ccccc3)c(C)nn2c1C)c1ccc(OC(C)C)cc1 (stereo unspecified) | -0.78
19 | CCSc1nc(CC(=O)NCCCNc2ccc(C)cn2)cs1 | -0.17
20 | O=C(O)CC1(NC(=O)N2Cc3ccccc3C(O)C2)CCCCC1 (stereo unspecified) | -2
21 | CC(C)Cn1cnc2c(N)nc3ccccc3c21 | -1.6
22 | CSc1nnc(NC(=O)c2cc(=O)c3cc(C)c(C)cc3o2)s1 | -2
23 | CCOCC(=O)N1CCc2c(nc(-c3ccccc3)nc2N(C)C)C1 | -0.01
24 | CC(C)CCNC(=O)c1ccc2c(c1)NC(=O)C(C(C)C)N2 (stereo unspecified) | -2.1
25 | COc1ccc(CNC(=O)Nc2cn(CC(C)C)c(=O)c3ccccc23)c(OC)c1 | 0.72
26 | COc1cccc(C(=O)NCCC(=O)N2Cc3nc(C)[nH]c(=O)c3C2)c1 | 1.5
27 | CCOC(=O)c1ccc(NC(=O)Cn2nnc(-c3ccc(C(F)(F)F)cc3)n2)cc1 | -1.9
28 | COc1ccc(C(=O)N2CC(=O)Nc3ccc(C)cc3C2c2ccccc2)c(OC)c1 (stereo unspecified) | -2
29 | COc1cc(NC(=O)CSc2cc(=O)n(C)c3ccccc23)cc(OC)c1OC | -1.1
30 | CC1CCN(CCNC(=O)c2ccc(Cn3c(SCc4ccccc4)nc4cccnc43)cc2)CC1 | -2.1
31 | CCn1cc(C(=O)N2CCN(c3cc(C)ccc3C)CC2)c(=O)c2cc(S(=O)(=O)N3CCCCC3)ccc21 | -0.39
32 | CCn1cc2nc(SCC(=O)Nc3cc(OC)cc(OC)c3)n(Cc3ccc(Cl)cc3)c(=O)c2n1 | 0.78
33 | COc1ccc(NC(=O)CC2C(=O)N(c3cccc(OC)c3)C(=O)N2CCC2=CCCCC2)cc1 (stereo unspecified) | 1.4
34 | COc1ccc(NC(=O)CC2Oc3ccc(C)cc3NC2=O)cc1Cl (stereo unspecified) | -1.6
35 | N#CC1CCN(C(=O)c2cnc(Cc3c(Cl)cccc3Cl)[nH]c2=O)CC1 | -0.86
36 | COc1ccc(C)cc1S(=O)(=O)NC1COCC1Cc1ccncc1 (stereo unspecified) | 0.47
37 | Clc1ccc(Nc2c(-c3cccs3)nc3ccc(Cl)cn23)cc1 | -3.1
38 | CCOc1ccc(-n2nc3cc(C)c(NC(=O)c4cc(OCC)c(OCC)c(OCC)c4)cc3n2)cc1 | -0.21
39 | O=S(=O)(c1cccc2ccccc12)N1CCN(c2ccc(Cl)c(Cl)c2)CC1 | 0.55
40 | Cc1ccc(CN(Cc2cccn2-c2nnc(N3CCCC3=O)s2)C(=O)Nc2ccccc2Cl)cc1 | 0.86
41 | CCCn1nc(C)c(NC(=O)N(C)Cc2nc(-c3cccnc3)no2)c1C | -0.71
42 | CCn1c(Cn2cncn2)nnc1C1CCN(C(=O)C2(C)CCNCC2)CC1 | 0.09
43 | CCN(C(=O)Cn1nc(Cc2ccncc2)c2ccccc2c1=O)c1cccc(Cl)c1 | -0.42
44 | CC(C)Cn1c(=O)c2ccccc2n2c(CCC(=O)Nc3ccc(F)c(F)c3)nnc12 | -1.3
45 | COC1CN(C(=O)c2ccc(Cl)s2)CC1Cc1cc(C)no1 (stereo unspecified) | -1.2
46 | CCn1cnnc1CCNC(=O)CC1C(=O)NCCN1Cc1ccc(C)o1 (stereo unspecified) | 1.3
47 | CCC(=O)Nc1ccc2nc3c(=O)n(C)c(=O)n(C)c3nc2c1 | -0.16
48 | COCCN(Cc1ccccn1)C(=O)NCC(C)c1ccc(Cl)cc1 (stereo unspecified) | -2
49 | O=C(Oc1cccc2cccnc12)c1ccccc1 | 2.6
50 | COc1ccc(Br)cc1CNC(=O)CSc1cc(=O)n(C)c2ccccc12 | -1.1
51 | Cc1ccc(-c2cc(C(=O)NC3C4CCC3CN(C(=O)C3CCOC3)C4)[nH]n2)cc1 (stereo unspecified) | 0.34
52 | CN1CC(C(=O)N2CCC3(CC2)OCCc2c3[nH]c3ccccc23)CCC1=O (stereo unspecified) | 0.56
53 | O=C(O)CCc1cc2n(n1)CCCN(C(=O)CCCCc1ccccc1)C2 | -0.35
54 | CN(Cc1ccccc1)C(=O)CCS(=O)(=O)c1cc(Br)cc2c1N(C(=O)C1CC1)CC2 | -0.65
55 | CCCCN1C(=O)c2[nH]nc(-c3ccccc3O)c2C1c1ccc(OCc2ccccc2)cc1 (stereo unspecified) | -0.75
56 | Cc1ccc(Oc2c(C(F)(F)F)oc3c(CN4CCCCC4)c(O)ccc3c2=O)cc1 | -2.3

(further entries)
cpd | molecule | Bm FixLJ act
57 | CCOC(=O)c1c(NC(=O)c2cc(Cl)ccc2Cl)sc2c1CCCC2 | 0.49
58 | Cn1nc2c(c1C(=O)NC1CCCCCCC1O)CCCC2 (stereo unspecified) | 0.59
59 | COc1cc(OC)cc(-c2nc(-c3cccc(C)c3)no2)c1 | 0.38
60 | Cc1nn(C(=O)COc2ccc(Cl)cc2)c(C)c1Sc1ccccc1 | -2.8
61 | Cc1ccc(N(CC(=O)Nc2cc(C)cc(C)c2)S(=O)(=O)c2cccc3nonc23)cc1 | -0.44
62 | CCOC(=O)c1c(C)c(C(=O)NCc2ccc(Cl)cc2)c(C)n1CC | -0.6
63 | Cc1cc(C(=O)O)nc(N2CCC(c3nc(C(C)C)no3)CC2)n1 | -0.24
64 | Cc1ccc(NC(=O)N(Cc2c[nH]c3ccccc23)C2CCCCCC2)cc1C | -1.5
65 | CCC[C@@H]1C[C@@H](C(=O)N[C@@H](C2O[C@H](SC)[C@H](O)[C@@H](O)[C@H]2O)[C@H](C)Cl)N(C)C1 (stereo partly specified) | -0.75
66 | CCN(C(=O)Cn1nc(Cc2ccncc2)c2ccccc2c1=O)c1cccc(C(F)(F)F)c1 | -0.22
67 | CCOC(=O)c1ccc(N2C(=O)c3n[nH]c(-c4cccs4)c3C2c2ccc(OC)cc2OC)cc1 (stereo unspecified) | 0.21
68 | Cc1cc(NCc2ccc(S(N)(=O)=O)cc2)nc(-c2ccccc2O)n1 | -1.7
69 | CCCCC(=O)O[C@]1(C(=O)CO)CCC2C3CCC4=CC(=O)CC[C@]4(C)C3[C@@H](O)C[C@@]21C (stereo partly specified) | 0.07
70 | Cc1oc(-c2ccccc2Cl)nc1CS(=O)(=O)CC(=O)NCc1ccc(F)cc1 | -0.58
71 | Cc1noc(-c2ccc(S(=O)(=O)N3CC(C(=O)O)C3)o2)c1C | 0.9
72 | O=C(c1ccc2c(c1)N(Cc1ccccc1)C(=O)c1ccccc1S2(=O)=O)N1CCN(c2ccccn2)CC1 | -0.98
73 | CN1CC2CN(C(=O)c3sccc3Cl)C[C@@]2(C(=O)O)C1 (stereo partly specified) | 0.26
74 | Cc1ccc(NC(=O)C2CCCN(S(=O)(=O)c3c(C)n[nH]c3C)C2)cc1Cl (stereo unspecified) | 1.2
75 | Cc1ccc(CCC(=O)NC2COCC2Cc2ccncc2)c(C)c1 (stereo unspecified) | -1.8
76 | COc1ccc(CC(=O)Nc2c(C(=O)Nc3ccccc3F)oc3ccccc23)cc1 | -1.9
77 | CN(CC=Cc1ccccc1)C(=O)NC(c1nccn1C)C1CC1 (stereo unspecified) | 0.03
78 | COCCCNC(=O)Cn1cnc2sc(C)c(S(=O)(=O)N3CCC(C)CC3)c2c1=O | 0.81
79 | CCC(=O)N1CCc2cc(Br)cc(S(=O)(=O)NCCc3ccc(OC)c(OC)c3)c21 | -1
80 | Cc1cccc(N2CCN(c3nc4ccccc4c4nc(-c5ccccc5)nn34)CC2)c1C | -1.3
81 | CCOC(=O)c1c(NC(=O)C(C)Oc2ccc(Cl)c(C)c2)sc2c1CCCC2 (stereo unspecified) | -1.1
82 | CC(C)(C)C(=O)Nc1nc2nc(-c3ccccc3)cc(=O)n2[nH]1 | -1.5
83 | O=C(Cn1c(=O)n(Cc2ccc(C(=O)NCc3ccccc3Cl)cc2)c(=O)c2ccccc21)Nc1ccc(F)cc1 | -0.41
84 | Cc1ccc(NC(=O)c2ccc3oc(=O)c(S(=O)(=O)c4ccccc4)cc3c2)cc1C | -0.98
85 | COc1cc2[nH]c(=O)[nH]c2cc1NC(=O)NCc1snnc1C(C)C | 0.94
86 | Cc1ccccc1-n1c(SCC(=O)Nc2ccc(Cl)cc2Cl)nc(O)cc1=O | -2.5
87 | CC1=C(C(=O)Nc2ccccc2Br)C2(CCC(C)CC2)OC1=O (stereo unspecified) | -2.3
88 | Cn1nccc1C(O)c1cc2n(n1)CCCN(Cc1ccc(Cl)cc1)C2 (stereo unspecified) | 2.1
89 | CCC(C(=O)Nc1cc(OC)ccc1OC)n1c(C)c2cnn(-c3ccccc3)c(=O)c2c1C (stereo unspecified) | -1.4
90 | COc1cc(C(=O)Nc2nnc(CC(C)(C)C)s2)cc(OC)c1OC | -0.57
91 | O=C(NC1CCN(Cc2ccccc2)CC1)c1ccc(Cn2c(=O)c3ccccc3n(Cc3ccc(Cl)cc3)c2=O)cc1 | -1.4
92 | CCc1ccc(C(=O)CC2(O)C(=O)N(CCc3ccccc3)c3ccc(Cl)cc32)cc1 (stereo unspecified) | 0.59
93 | CCCCCn1c(=O)[nH]c2cc(C(=O)N3CCN(c4cccc(C)c4)C(C)C3)ccc2c1=O (stereo unspecified) | -2
94 | Cc1cc(C)c(S(=O)(=O)NCCc2cc3cc(C)c(C)cc3[nH]c2=O)c(C)c1 | -1.2
95 | CC(C)CN(CCCNC(=O)CN1C(=O)COc2ccc(S(=O)(=O)N3CCCCCC3)cc21)CC(C)C | 1.3
96 | Cc1oc(-c2ccccc2F)nc1CS(=O)(=O)CC(=O)NCCc1ccc(Cl)cc1 | 0.77
97 | CCCN(CCC)CCCNC(=O)Cn1ncc2c3ccccc3n(Cc3ccccc3F)c2c1=O | 0.17
98 | Cc1ccccc1Cc1c(C)nc2nc(SCC(=O)NC(C)c3ccccc3)nn2c1C (stereo unspecified) | -2.7
99 | Nc1ccn([C@H]2CC[C@@H](CO)O2)c(=O)n1 | -2.4
100 | COCC(=O)N1CCC(NC(=O)c2c(C)c3cc(F)ccc3n2C)C(O)C1 (stereo unspecified) | -1.3
101 | COC(=O)c1ccccc1NC(=O)CCS(=O)(=O)c1nc(-c2ccc3c(c2)OCO3)cc(C(F)(F)F)n1 | -0.56
102 | COc1cc2c(cc1OC)C1(CCN(C(=O)c3ccco3)CC1)OCC2 | 0.83
103 | CC(C)Oc1ccc(C(=O)Nc2c(C(=O)Nc3cccc(F)c3)oc3ccccc23)cc1 | 1.5
104 | COC(=O)c1coc(CN2CCN3C(=O)OCC3(Cc3ccccc3)C2)n1 (stereo unspecified) | 0.18

The last 5 records of the section above lead into the next.
cpd | molecule | Bm FixLJ act
100 | COCC(=O)N1CCC(NC(=O)c2c(C)c3cc(F)ccc3n2C)C(O)C1 (stereo unspecified) | -1.3
101 | COC(=O)c1ccccc1NC(=O)CCS(=O)(=O)c1nc(-c2ccc3c(c2)OCO3)cc(C(F)(F)F)n1 | -0.56
102 | COc1cc2c(cc1OC)C1(CCN(C(=O)c3ccco3)CC1)OCC2 | 0.83
103 | CC(C)Oc1ccc(C(=O)Nc2c(C(=O)Nc3cccc(F)c3)oc3ccccc23)cc1 | 1.5
104 | COC(=O)c1coc(CN2CCN3C(=O)OCC3(Cc3ccccc3)C2)n1 (stereo unspecified) | 0.18
105 | COc1cc(C2Nc3ccccc3-c3nnc(SCc4ccc(Cl)cc4)nc3O2)ccc1OCC(=O)O (stereo unspecified) | -0.8
106 | CSCc1noc(CNC(=O)Nc2cccc3nn(C)nc23)n1 | -0.39
107 | Cn1c(SCc2ccc(F)cc2)nc2ccc(C(=O)NCc3ccc(F)cc3)cc21 | -0.32
108 | COc1ccc(OC)c(NC(=O)c2nc(SCc3ccccc3F)ncc2Cl)c1 | 1.8
109 | CC[C@@]1(C(=O)O)CC(C(=O)N(C)CCCO)C(c2ccc(OC)cc2)N1C (stereo partly specified) | 0.52

Three structures already listed, arranged by length of the SMILES, largest number first:
cpd | molecule | Bm FixLJ act
105 | COc1cc(C2Nc3ccccc3-c3nnc(SCc4ccc(Cl)cc4)nc3O2)ccc1OCC(=O)O (stereo unspecified) | -0.8
107 | Cn1c(SCc2ccc(F)cc2)nc2ccc(C(=O)NCc3ccc(F)cc3)cc21 | -0.32
108 | COc1ccc(OC)c(NC(=O)c2nc(SCc3ccccc3F)ncc2Cl)c1 | 1.8

Screening data: PubChem BioAssay, ICCB-Longwood Screening Facility, Harvard Medical School

Not all compounds are listed (hit frequency here may not be typical).
